Screening data deposited in PubChem BioAssay by several laboratories.
AF4-AF9 inh: MLL-AF4/AF9 protein interaction inhibition | 350,000 tested, 0.47% active | inhibition, % at 10 µM | P42568 | AlphaScreen, biotin-AF4 peptide binding to FLAG-AF9 | AID 651704;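 active = every replicate reaching a set inhibition limit, whatever the replicate mean, cut at about 25% in these data; inconclusive = mean inhibition reaches that limit but some replicates miss it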;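 also: 0% = plate neutral control median and 100% = total signal loss; the record names both 10 and 1 µM as test concentration; the first replicate is given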
Target sequence (P42568 whole entry, looked up): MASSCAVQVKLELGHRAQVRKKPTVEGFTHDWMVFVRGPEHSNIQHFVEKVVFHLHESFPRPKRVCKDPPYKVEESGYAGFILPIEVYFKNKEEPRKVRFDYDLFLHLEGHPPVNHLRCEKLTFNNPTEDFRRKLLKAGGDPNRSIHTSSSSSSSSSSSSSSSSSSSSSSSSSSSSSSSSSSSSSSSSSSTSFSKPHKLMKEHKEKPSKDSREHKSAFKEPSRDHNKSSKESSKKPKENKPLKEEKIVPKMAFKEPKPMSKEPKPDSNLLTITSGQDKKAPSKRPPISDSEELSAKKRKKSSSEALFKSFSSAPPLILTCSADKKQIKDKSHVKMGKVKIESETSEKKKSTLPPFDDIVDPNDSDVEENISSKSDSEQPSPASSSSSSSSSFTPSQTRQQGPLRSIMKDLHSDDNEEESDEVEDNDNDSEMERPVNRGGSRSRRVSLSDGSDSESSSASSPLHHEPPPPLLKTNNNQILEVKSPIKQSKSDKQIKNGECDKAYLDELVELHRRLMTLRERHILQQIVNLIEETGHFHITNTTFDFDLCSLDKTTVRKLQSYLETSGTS
Ecoli growth: E. coli growth inhibition; Escherichia coli growth, OD600, 23 h; hits give low values; OD600 absorbance (test concentration not listed); 330,000 tested, 0.21% active; AID 1053175;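 active = OD600 absorbance below the run mean of sample wells minus 3.6 SD, in any replicate, cut at about 0.56 in these data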;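 also: stock transfer was 300 nL into about 60 µL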
Vif TR-FRET: inhibitors of Vif binding to APOBEC3G peptide, primary screen, biochemical, TR-FRET, GST-Vif 1-94, biotin-A3G peptide, dose response retest (AID 1117319). TR-FRET GST-Vif / biotin-A3G peptide binding; higher % means a stronger effect; test concentration not given here; strong numbers were not always called active. one-dose inhibition, %; IC50 in µM for titrated hits. 260,000 tested, 0.57% active;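 active = above the screen mean plus three standard deviations and confirmed in dose response; inconclusive = results disagree or hit not tested in dose response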;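 also: Vif residues 1-94 fused to GST binding biotinylated APOBEC3G peptide 110-148; 0% = full assay without inhibitor and 100% = GST in place of GST-Vif; retest series ran down from 100 µM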
rRNA inh HTS: inhibitors of bacterial rRNA selective over humanized ribosomes | E. coli WT GFP vs humanized-ribosome RFP mutants, fluorescence, 24 h; hits give low values; DMSO median 0, no signal -100 | GFP signal change (wild-type ribosome), % (no concentration beside the values) | 350,000 tested, 1.6% active;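 active = significant combined selectivity score with lowered wild-type GFP, culture density cut under 30%, mutant RFP and density less affected; inactive = any of these conditions unmet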; also: one replicate is shown; some compounds called inactive have numbers as strong as hits
ALR H2O2 inh: inhibitors of human sulfhydryl oxidase ALR | P55789 | purified ALR, DTT oxidation, H2O2 HRP-luminol luminescence | 290,000 tested, 3.8% active | inhibition, % (concentration not given with the values) | AID 485317;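 active = mean and each replicate at 75% or more; inconclusive = only one of the two met; inactive = neither met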;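 also: stock transfer was 7.5 nL into about 7.5 µL; 0% = neutral wells and 100% = wells with inactivated enzyme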
HNF4A DNA FP: change in binding of human HNF4 alpha to DNA; HNF4a-FITC DNA binding, fluorescence polarization, 1 h; activity change, % at 10 µM; 360,000 tested, 0.3% active; AID 1224865; in the data active = activity change above about 30%, passing the limit was not always enough;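 also: controls were the assay level and a saturating level of protein; the project sought stronger binding though the title names inhibitors; some compounds called inactive have numbers as strong as hits; positive values seem to mean higher polarization but the record does not say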
Target sequence (P41235 whole entry, looked up): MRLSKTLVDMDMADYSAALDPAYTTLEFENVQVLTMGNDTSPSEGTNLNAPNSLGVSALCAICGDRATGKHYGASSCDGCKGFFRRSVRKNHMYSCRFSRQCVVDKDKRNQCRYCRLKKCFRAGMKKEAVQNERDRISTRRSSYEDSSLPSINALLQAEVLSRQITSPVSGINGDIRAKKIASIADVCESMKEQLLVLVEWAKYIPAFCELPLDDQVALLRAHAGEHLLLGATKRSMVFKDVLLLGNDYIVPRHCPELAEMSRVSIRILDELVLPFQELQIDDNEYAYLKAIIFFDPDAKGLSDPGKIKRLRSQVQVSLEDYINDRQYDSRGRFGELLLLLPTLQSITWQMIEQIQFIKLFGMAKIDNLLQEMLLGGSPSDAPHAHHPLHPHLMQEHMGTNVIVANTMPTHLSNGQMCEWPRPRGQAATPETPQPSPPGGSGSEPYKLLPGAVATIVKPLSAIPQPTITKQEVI
FGF22 binding: shifts melting point of recombinant human FGF22; calls only at 9.99 µM; recombinant FGF22 thermal shift, SYPRO orange fluorescence; percent of sucrose octasulfate shift, DMSO zero; AID 651658; Q9HCT0; 340,000 tested, 1.5% active;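 active = melting point raised past a set limit in the mean and every replicate; inconclusive = no clear call; three in four hits are not shown here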
rRNA inh HTS OD600: recorded beside rRNA inh HTS, whose call it bears; OD600 change, %; measured here: OD600 growth;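 optical density of the mix in the first replicate; 0 = DMSO median and -100 = no signal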
rRNA inh HTS RFP: recorded beside rRNA inh HTS, whose call it bears; RFP signal change, %; measured here: RFP humanized mutant strains;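 first replicate; 0 = DMSO median and -100 = no signal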
Active calls of the source: *; i = inactive; ? = inconclusive; . = no result given.

canonical_smiles,AF4-AF9 inh,Ecoli growth,Vif TR-FRET,rRNA inh HTS,rRNA inh HTS OD600,rRNA inh HTS RFP,ALR H2O2 inh,HNF4A DNA FP,FGF22 binding
COc1cccc(CSc2nc3ccccc3cc2C=O)c1,.,0.709,0.8%,.,.,.,.,-2.8,.
O=C(CC1NCCNC1=O)Nc1cccc([N+](=O)[O-])c1 (stereo not drawn),-0.3,0.698,16.8%,15.8,11.4,0.2,3.4,-1.3,i
CC(=O)Nc1cccc2c1C(=O)N(c1ccc(OC(C)=O)cc1)C2=O,-15.3,0.711,22.4%,4.8,3.1,-2.3,0.0,1.6,i
Cc1ccccc1Cn1c(=O)c2c(nc3n2CCCN3Cc2ccccc2)n(C)c1=O,.,0.769,2.0%,.,.,.,-0.6,0.9,.
CN(Cc1ccccc1)C(=O)COc1ccccc1,.,0.699,0.1%,.,.,.,-3.8,0.9,.
O=C(COc1ccc(/C=N/NC(=O)c2ccc(O)cc2)cc1)Nc1cccc([N+](=O)[O-])c1,0.3,.,10.4%,8.3,7.4,1.4,-0.5,-6.2,i
Cc1noc(C)c1NC(=O)N(C)C[C@@H]1Oc2c(NS(=O)(=O)c3cccs3)cccc2C(=O)N([C@@H](C)CO)C[C@@H]1C,-2.0,.,.,5.0,12.4,-0.3,.,.,i
C=CCn1c(C(C)NC(=O)CCC)nc2ccccc21 (stereo not drawn),0.6,0.695,-3.1%,10.4,2.2,2.6,1.0,2.4,i
C/C=C/c1ccc2c(c1)O[C@H](CN(C)C(=O)c1ccc(F)cc1)[C@@H](C)CN([C@H](C)CO)S2(=O)=O,2.3,.,.,-4.0,-4.2,1.4,.,.,i
O=C(CSc1n[nH]c(-c2ccncc2)n1)Nc1ccccn1,.,0.647,4.3%,.,.,.,-14.4,-2.7,.
COc1ccc(OCC(=O)Nc2cc(NC(=O)c3ccco3)ccc2OC)cc1,-5.3,0.643,.,-7.0,0.6,-2.8,21.3,1.7,i
O=C1CCC(C(=O)NCCN2C(=O)S/C(=C\c3cccnc3)C2=O)=NN1,-1.4,0.708,.,18.6,22.9,-3.0,-0.5,1.6,i
O=[N+]([O-])c1ccc(/C=N\N2CCN(c3ccc(Cl)cc3)CC2)cc1,.,.,18.1%,.,.,.,6.0,-4.2,.
COc1ccc(C(=O)N2CC(=O)Nc3ccc(C)cc3C2c2ccccc2)cc1 (stereo not drawn),1.2,0.652,.,3.9,-1.3,1.1,.,-0.2,i
C[C@@H]1CN([C@@H](C)CO)C(=O)c2cc(NC(=O)c3ccccc3)ccc2O[C@@H](C)CCCCO[C@@H]1CN(C)C(=O)Nc1ccc(C(F)(F)F)cc1,-13.4,.,.,0.2,-1.4,-3.0,.,.,i
COCCN1C(=O)C(CC(=O)Nc2ccc(C(=O)O)cc2)SC1=Nc1ccccc1 (stereo not drawn),.,0.718,1.0%,.,.,.,-9.5,-0.9,.
Cc1ccc(S(=O)(=O)N(C)C[C@@H]2Oc3ccc(NC(=O)Nc4ccccc4)cc3C(=O)N([C@H](C)CO)C[C@@H]2C)cc1,5.0,.,.,1.4,-6.3,3.9,.,.,i
CSc1ccccc1C(=O)NCc1ccccc1,1.3,0.671,-4.8%,15.8,3.9,-2.5,.,0.5,i
COC(=O)c1cn(NC(=O)c2cccc(F)c2)c(=O)c2ccccc12,.,0.703,20.2%,.,.,.,-6.2,2.1,.
CCOc1ccccc1N(C(=O)Cn1nnnc1-c1ccc(C)o1)C(CC)C(=O)NC(C)(C)C (stereo not drawn),.,0.622,14.7%,.,.,.,3.5,-0.4,.
CN1C(=O)[C@H]2[C@@H](/C=C/c3ccccc3)N3C(=O)CN(CCO)C(=O)[C@@]3(Cc3ccccc3)[C@H]2C1=O,-3.9,.,.,.,.,.,1.2,-3.1,i
CCS(=O)(=O)N1CCC2(CC1)CN(S(=O)(=O)c1cn(C)cn1)[C@@H](CO)c1[nH]c3cc(OC)ccc3c12,-3.2,.,.,1.9,-0.2,-1.7,.,.,i
Cc1nc2nc[nH]n2c(=O)c1NC(=O)CCc1ccccc1,.,0.704,1.1%,.,.,.,.,5.5,.
O=C(COc1ccccc1Cl)Nc1ccc2c(c1)OCCO2,.,0.634,-3.6%,.,.,.,-17.2,-1.4,.
CCOC(=O)C1C(=O)C=C(c2ccc(NS(C)(=O)=O)cc2)CC1c1ccco1 (stereo not drawn),.,0.661,6.2%,.,.,.,4.5,-1.1,.
C[C@H](CO)N1C[C@H](C)[C@@H](CN(C)Cc2ccc(C(=O)O)cc2)Oc2ccc(NC(=O)NC3CCCCC3)cc2CC1=O,-2.2,.,.,2.9,10.2,-1.9,.,.,i
CCOC(=O)C(CC)/C(C)=N/NC(=O)c1ccc([N+](=O)[O-])cc1 (stereo not drawn),.,.,5.2%,.,.,.,-12.1,-4.3,.
CCC(C)c1ccc(OCc2ccc(C(=O)OC)o2)cc1 (stereo not drawn),-0.5,0.659,-1.5%,-12.1,-16.7,-3.7,-1.1,1.9,i
O=C(O)CNC(=O)c1ccc(NC(=O)/C(=C/c2ccccc2)NC(=O)c2ccccc2Br)cc1,0.8,0.657,-7.2%,20.1,4.9,4.2,-17.9,2.1,i
O=C(Cc1ccccc1)N1CC2(C1)[C@H](c1ccccc1)[C@@H](CO)N2C(=O)Cc1ccccc1,-1.1,.,.,-3.3,-7.6,-0.1,.,.,i
CC(C)c1ccc(S(=O)(=O)N2CCN(C(=O)C3=COCCO3)CC2)cc1,2.4,0.675,.,-0.2,-9.2,-1.1,-6.9,3.3,i
CCN(CC)CCN1C(=O)C(O)=C(C(C)=O)C1c1ccccc1[N+](=O)[O-] (stereo not drawn),-5.6,.,2.2%,5.8,2.6,1.7,-21.7,-18.7,i
COCC(=O)N1C[C@@H](C)[C@@H](OC)CN(C)C(=O)c2cc(NC(=O)c3ccc(F)cc3)ccc2OC[C@H]1C,-0.6,.,.,-0.3,-2.7,-0.5,.,.,i
CCc1ccc(NC(=S)NCc2ccccc2)cc1,-2.3,0.729,-1.6%,2.8,-0.8,-3.1,.,8.1,i
NS(=O)(=O)c1ccc(NC(=O)COc2ncnc3c2cnn3-c2ccccc2)cc1,-10.3,0.694,.,0.3,2.6,0.8,2.7,1.1,i
CC(=O)c1ccc(NC(=O)CCc2nc3sc4c(c3c(=O)[nH]2)CCCC4)cc1,-0.2,0.688,0.0%,2.9,6.1,2.1,3.7,11.5,i
Cc1ccc(Cn2c(NCCc3ccccc3)nc3c2c(=O)n(C)c(=O)n3C)cc1,.,0.728,-0.7%,.,.,.,3.4,3.2,.
Cc1c(Cl)cccc1NC(=O)CNC(=O)C1CC(=O)N(CCc2ccccc2)C1 (stereo not drawn),0.8,0.721,0.6%,-3.8,3.4,-0.1,-2.1,5.1,i
O=C1CN(C(=O)COC(=O)C2CC(=O)N(Cc3ccco3)C2)c2ccccc2N1 (stereo not drawn),.,0.777,0.5%,.,.,.,-2.0,-0.1,.
O=S(=O)(c1ccc(F)cc1)N1CCN(c2ncnc3c2cnn3-c2ccccc2)CC1,.,0.7,-23.8%,.,.,.,-2.2,2.0,.
COc1ccc(-c2ccc(CN3C(C)C(=O)N(Cc4cn(CCC5OCCO5)nn4)CCS3(=O)=O)cc2)cc1OC (stereo not drawn),-2.7,.,.,8.6,4.6,3.2,.,-1.2,i
O=C(Nc1ccccc1)N1C[C@H]2[C@@H](c3ccccc31)[C@H](CO)N2C(=O)Cc1ccccn1,0.9,.,.,-1.3,-0.2,-1.6,.,.,i
CN(C)C(=O)C[C@H]1CC[C@H](NC(=O)C2CC2)[C@H](CO)O1,-1.7,.,.,1.7,-9.2,-2.4,.,.,i
O=C(NNC(=O)C1CCN(c2ncccn2)CC1)c1ccc(Cl)cc1,-1.5,0.69,.,4.3,9.1,2.1,.,4.7,i
CCc1nc2ccc(C(=O)N(C)CCCN(C)C)cn2c1N(C)Cc1cc2ccccc2s1,9.8,.,.,-1.8,-7.5,-6.8,.,-0.9,i
Cc1ccccc1-n1nc2c(c1NC(=O)CCCl)CSC2,-5.3,0.69,-10.3%,9.4,1.2,-0.1,-2.6,1.0,i
COc1ccc(-c2ccc3c(c2)O[C@H](CN(C)C(C)=O)[C@@H](C)CN([C@@H](C)CO)S3(=O)=O)cc1,-2.0,.,.,-7.4,-14.1,-5.8,.,.,i
Cc1ccc(-n2ncc3c2CC(C)(C)CC3NC(=O)C2CCOCC2)cc1 (stereo not drawn),-0.6,0.693,0.1%,2.8,6.8,1.4,-2.4,-0.1,i
CC(C)NC(=O)Nc1cccc2c1O[C@@H](CN(C)CC1CC1)[C@H](C)CN([C@H](C)CO)C2=O,-3.8,.,.,0.6,5.5,-2.2,.,.,i
COc1cc2c(cc1OC)C(COc1ccccc1OC)N(C(=O)C(C)(C)C)CC2 (stereo not drawn),-3.3,0.677,-3.5%,20.6,17.8,-0.8,-3.6,-0.4,i
Cc1ccccc1NC(=O)/C(=C/c1ccco1)c1ccccc1,.,0.729,?,.,.,.,83.5*,1.9,.
CCCc1nn2c(=O)c(C(c3cccc(Cl)c3)c3c(O)nc4sc(CCC)nn4c3=O)c(O)nc2s1,.,0.71,7.9%,.,.,.,8.8,-1.9,.
Cc1cc(C)c(NC(=O)COC(=O)COc2ccc3c(C)cc(=O)oc3c2)c(Cl)c1,-0.1,0.715,.,23.6,20.1,0.4,-10.0,-0.9,i
Nc1c(C(=O)OCC(=O)Nc2ccccc2Br)[nH]c(=O)[nH]c1=O,-3.0,.,30.2%,9.3,14.4,-1.7,.,-0.6,i
Cc1ccc(S(=O)(=O)N(C)C[C@@H]2Oc3ccc(NS(=O)(=O)c4ccc(F)cc4)cc3CC(=O)N([C@@H](C)CO)C[C@H]2C)cc1,-2.1,.,.,-2.4,-12.8,-0.2,.,.,i
C[C@H](O)C#Cc1ccc2c(c1)O[C@@H](CN(C)C(=O)c1ccccc1)[C@@H](C)CN([C@@H](C)CO)S2(=O)=O,-3.4,.,.,-1.3,3.1,-2.8,.,.,i
O=C(Nc1ccccc1F)N[C@H]1CC[C@@H](CCNS(=O)(=O)c2ccc(Cl)cc2)O[C@H]1CO,2.4,.,.,-3.0,-10.2,-0.4,.,.,i
CCOc1ccccc1N1CCN(C(=O)c2ccncc2)CC1,.,0.661,-1.3%,.,.,.,12.8,-1.2,.
O=C(CSc1nc2ccccc2[nH]1)NCC1CCCO1 (stereo not drawn),-2.6,0.685,14.8%,1.9,8.4,-1.9,-14.9,-0.6,i
O=[N+]([O-])c1ccc(-n2cc(-c3ccccc3)nn2)cc1,4.0,0.673,7.3%,1.3,9.9,-2.3,-17.8,0.7,i

Structures above shown as hits in ALR H2O2 inh.
Structure	AF4-AF9 inh	Vif TR-FRET	rRNA inh HTS	rRNA inh HTS OD600	rRNA inh HTS RFP	ALR H2O2 inh	HNF4A DNA FP	FGF22 binding
Cc1ccccc1NC(=O)/C(=C/c1ccco1)c1ccccc1	.	?	.	.	.	83.5*	1.9	.

These rows are one share of the data; count on the stated rates, not on these rows.
